HSF-1 act: increases HSF-1 driven luciferase reporter signal | activation, % at 9 µM | NIH3T3-HGL HSF-1 luciferase reporter, MG132, 8 h; 100% = twice DMSO control signal | 300,000 compounds, 1.7% hits;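 active = mean replicate activation of at least 50% with a set share of replicates each reaching 50%; inconclusive = only one of those two conditions met; inactive = mean below 50% and too few replicates reaching it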;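 also: 0% = median of the neutral control wells and 100% = twice that signal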
IEC-6 tox: counter-screen for KLF5 inhibitors: cytotoxicity in IEC-6 cells; IEC-6 cytotoxicity, luminescence viability; inhibition, % at 5 µM; 290,000 compounds, 0.78% hits; in the data active = inhibition above about 22%;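 also: 0% = plate median of test compound wells and 100% = cytotoxic reference compound wells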
HDAC3 inhib: inhibitors of human histone deacetylase 3; AID 2718; inhibition, % at 8.3 µM; O15379; 320,000 compounds, 0.15% hits; recombinant HDAC3, fluorogenic peptide/trypsin coupled, fluorescence; in the data active = inhibition above about 26%, passing the limit was not always enough; inconclusive = no clear call, values can overlap the other calls
Target sequence (O15379 whole entry, looked up): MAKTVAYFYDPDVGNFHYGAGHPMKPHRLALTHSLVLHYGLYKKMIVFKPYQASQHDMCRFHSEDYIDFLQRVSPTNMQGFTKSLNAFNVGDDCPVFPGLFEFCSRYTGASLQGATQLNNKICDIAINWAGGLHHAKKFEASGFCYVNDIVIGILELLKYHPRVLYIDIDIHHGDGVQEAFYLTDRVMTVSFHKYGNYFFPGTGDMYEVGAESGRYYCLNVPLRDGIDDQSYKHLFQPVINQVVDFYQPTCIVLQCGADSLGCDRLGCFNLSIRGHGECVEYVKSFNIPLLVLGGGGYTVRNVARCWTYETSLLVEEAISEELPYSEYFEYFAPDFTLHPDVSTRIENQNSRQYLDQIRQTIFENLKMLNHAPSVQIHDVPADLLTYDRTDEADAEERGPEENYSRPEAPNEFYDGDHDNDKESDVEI
KLF5 inh: suppresses KLF5 promoter-driven expression. DLD-1 KLF5 promoter-luciferase reporter, luminescence. 290,000 compounds, 0.23% hits. inhibition, % at 5 µM;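 active = inhibition above a per-plate limit of that plate's mean compound inhibition plus 3 SD, cut at about 60% in these data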;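 also: 0% = DMSO wells and 100% = LY294002 at 200 µM; higher means less KLF5 promoter-driven luciferase light; inactives centre near -14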
Platelet DG rel: platelet dense granule release activity. human platelet-rich plasma, SFLLRN dense granule ATP release, luminescence. inhibition, %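 (compounds screened at 7.5 µM in platelet-rich plasma)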. 300,000 compounds, 0.22% hits. AID 1663;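 active = mean replicate score, as percent of positive control, at or above 50; inconclusive = mean below 50 but at least one replicate at or above 50; inactive = mean and every replicate below 50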
AI-2 QS modul: modulators of Vibrio harveyi AI-2 quorum sensing system; 300,000 compounds, 0.4% hits; activity change, % at 7.5 µM; Vibrio harveyi JMH597 AI-2 luminescence/OD600 ratio, 9 h; stronger effect = lower value; strain lacks LuxN and CqsS sensors; 0 = neutral-control median; in the data active = activity change below about -75%, passing the limit was not always enough; inconclusive = no clear call, values can overlap the other calls;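 also: luminescence divided by OD600 gain over 9 h not by final OD600 alone; inactives centre near 13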
aSyn 5UTR inh: 5' untranslated region of α-synuclein, MLPCN primary screen | alpha-synuclein 5'UTR reporter, inhibitor activity | inhibition, % (tested at 7.5 µM) | 300,000 compounds, 0.82% hits | AID 1813; in the data active = inhibition above about 60%; inconclusive = no clear call, values can overlap the other calls;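 also: H4 neuroglioblastoma cells stably carrying SNCA 5'UTR luciferase fusion; 0% = DMSO wells and 100% = positive control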
HSP90 inh: inhibitors of HSP90 luciferase refolding in rabbit reticulocyte lysate; luciferase refolding luminescence, 3 h; inhibition, % at 5.6 µM; AID 1789; 290,000 compounds, 0.91% hits;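 active = inhibition above the screen-wide mean plus 3 SD, computed separately per campaign, cut at about 16% in these data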;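 also: 0% = DMSO wells and 100% = 60 µM geldanamycin wells; inhibitors lower the luminescence because luciferase stays unfolded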
HSF1 inh: HSF1 inhibition; NIH3T3-HGL HSE-luciferase, MG132-induced, luminescence 8 h; stronger effect = lower value; activity change, negative = inhibition, % at 7.5 µM (by protocol); 300,000 compounds, 0.77% hits; AID 2098;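 active = more than half of replicate wells show activity change below -50%, luminescence cut by over half; inconclusive = some wells, but at most half, below -50%; inactive = no replicate well below -50%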;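 also: luciferase reports HSF-1 transcriptional activity via heat shock element; 0% = median of DMSO wells and -100% = zero luminescence signal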
An asterisk follows results filed as active; ? = inconclusive; nt = not tested or not shown; & = joins results of further samples.

Abbreviations – A = HSF-1 act; B = IEC-6 tox; C = HDAC3 inhib; D = KLF5 inh; E = Platelet DG rel; F = AI-2 QS modul; G = aSyn 5UTR inh; H = HSP90 inh; I = HSF1 inh
1	O=C1CCCN1CC#CCN1CCCC1
  A: 18	B: -5	C: 2	D: -10	E: -2	F: 19	G: -2	H: -5	I: 5
2	C[C@]12CCC(=O)C=C1CC[C@@H]1[C@@H]2CC[C@]2(C)C(=O)CC[C@@H]12
  A: 1	B: 4	C: -2	D: -5	E: 0	F: 3	G: 5	H: 2	I: 14
3	CC(C)OC(=O)c1c(N)n(Cc2ccco2)c2nc3ccccc3nc12
  A: 12	B: 5	C: -72	D: -9	E: -2	F: 19	G: 8	H: 4	I: 3
4	COc1ccc2c(c1OC)CN1CCc3cc4c(cc3C1C2)OCO4 (stereo not drawn)
  A: -2	B: -6	C: 0	D: -18	E: -6	F: 14	G: -26	H: -8	I: 0
5	C[N+]1(C)[C@@H]2CC[C@H]1CC(OC(=O)[C@@H](CO)c1ccccc1)C2 (stereo partly drawn)
  A: -5	B: -5	C: ?	D: -36	E: -1	F: 16	G: -1	H: -5	I: -7
6	CC(=O)OC1(Cc2ccccc2)CN2CCC1c1ccccc12 (stereo not drawn)
  A: 10	B: -7	C: 1	D: 3	E: 1	F: 11	G: 14	H: -3	I: 1
7	Clc1cc(I)cc(Cl)c1NC1=NCCN1
  A: -10	B: nt	C: 0	D: nt	E: -2	F: 7	G: 13	H: nt	I: -4
8	CC[N+]1(C)CCCC(OC(=O)C(O)(c2ccccc2)c2ccccc2)C1 (stereo not drawn)
  A: 13	B: -3	C: 9	D: 9	E: 3	F: 17	G: -10	H: 2	I: 7
9	COc1ccc(C(=O)CN2CCOCC2)cc1F
  A: -6	B: -1	C: -6	D: -50	E: 5	F: 15	G: -17	H: 0	I: -1
10	CC(=O)OCC[N+](C)(C)C
  A: 4&0&-11	B: -2&2	C: 5&-2&-7	D: -11&-11	E: -10&-9&-2	F: 13&11&7	G: -12&4&4	H: 0&2	I: 4&-2&0
11	O=c1[nH]c2ccccc2c(=O)n1-c1cccc(Cl)c1
  A: -2	B: 7	C: -5	D: -8	E: 5	F: 13	G: 17	H: 0	I: 4
12	C[N+]1(C)CCc2cc3c(cc2[C@H]1[C@@H]1OC(=O)c2c1ccc1c2OCO1)OCO3
  A: 6&-7	B: -2&4	C: ?	D: -16&-25	E: 2&-2	F: 11&11	G: 19&5	H: 4&0	I: 0&-4
13	COc1ccc(C(=O)N2CCCC2=O)cc1
  A: 11	B: -2	C: 5	D: -12	E: -2	F: 16	G: 14	H: 4	I: -1
14	CC1=CC(=O)C2=C(C)C[C@H](O)[C@@H]3[C@H](OC(=O)[C@H]3C)[C@@H]12
  A: nt	B: nt	C: 1	D: nt	E: nt	F: nt	G: nt	H: nt	I: nt
15	CC1=C[C@@H]2c3cccc4[nH]cc(c34)C[C@H]2N(C)C1
  A: -47	B: -1	C: -10	D: -13	E: 1	F: 8	G: 3	H: 3	I: -34

(cont.)
Abbreviations – A = HSF-1 act; B = IEC-6 tox; C = HDAC3 inhib; D = KLF5 inh; E = Platelet DG rel; F = AI-2 QS modul; G = aSyn 5UTR inh; H = HSP90 inh; I = HSF1 inh
16	Cn1c(O)c(C=NC2CCN(Cc3ccccc3)CC2)c(=O)n(C)c1=O
  A: -7	B: nt	C: -4	D: nt	E: 0	F: 10	G: 8	H: nt	I: -4
17	O=C(c1ccco1)C12CN3CN(CN(C3)C1)C2
  A: -1	B: -1	C: 0	D: -28	E: -3	F: 2	G: 16	H: 1	I: -4
18	Cc1ccc2c(c1)C1CN(C)CCC1N2C(=O)Nc1cccc(C(F)(F)F)c1 (stereo not drawn)
  A: -77	B: -4	C: 5	D: -4	E: 4	F: 19	G: 4	H: -2	I: -70*
19	COc1cc2c(cc1O)CC1c3c(cc(O)c(OC)c3-2)CCN1C (stereo not drawn)
  A: -3	B: -7&-5	C: -25	D: -34&-76	E: 6	F: 2	G: -20	H: 2&2	I: -1
20	CCCN(CCC)[C@@H]1CCc2cccc(O)c2C1
  A: -11	B: nt	C: 1	D: nt	E: -1	F: 28	G: -5	H: nt	I: -3
21	CCOC(=O)c1cc(C)n(CCc2cnc[nH]2)c1C
  A: -2	B: -1	C: 5	D: -25	E: 9	F: 17	G: -33	H: -2	I: 1
22	CC(=O)OC1(c2ccc(C)cc2)CN2CCC1c1ccccc12 (stereo not drawn)
  A: -3	B: 1	C: 2	D: -10	E: -2	F: 10	G: 5	H: 2	I: -2
23	CC12CCC(=O)C=C1CCC1C2CCC2(C)C(O)CCC12 (stereo not drawn)
  A: nt	B: 4	C: 1	D: 5	E: nt	F: nt	G: nt	H: 2	I: nt
24	CCN(CC)CCN=C(C)c1c(O)n(-c2ccccc2OC)c(=O)[nH]c1=O
  A: -6	B: -4	C: ?	D: -25	E: 21	F: 14	G: 29	H: 1	I: -4
25	Oc1ccc2c3c1O[C@H]1c4oc5ccccc5c4C[C@@]4(O)[C@@H](C2)N(CC2CC2)CC[C@]314
  A: -1	B: nt	C: -5	D: nt	E: 2	F: 9	G: 2	H: nt	I: -1
26	CC(=O)[C@@]1(O)CC[C@H]2[C@@H]3CC=C4C[C@@H](O)CC[C@]4(C)[C@H]3CC[C@@]21C
  A: 7	B: -1	C: -2	D: -5	E: -3	F: 20	G: -4	H: 0	I: 1
27	CCc1nc(N2CCNCC2)c(C#N)c2c1CSC(C)(C)C2
  A: -4	B: -1	C: -3	D: -24	E: -7	F: 42	G: 18	H: 5	I: 3
28	Cn1c(O)c(C(=O)c2ccccc2Cl)c(=O)n(C)c1=O
  A: -19	B: -13	C: -11	D: -26	E: -9	F: 11	G: -8	H: -4	I: 2
29	CC(=NCCO)c1c(O)n(C)c(=O)n(C)c1=O
  A: 24	B: 3	C: -5	D: -6	E: 2	F: 21	G: -11	H: -1	I: -8
30	C[C@]12N[C@H](Cc3ccccc31)c1ccccc12
  A: -13	B: nt	C: 6	D: nt	E: -4	F: 14	G: -13	H: nt	I: 0

The results go on:
Abbreviations – A = HSF-1 act; B = IEC-6 tox; C = HDAC3 inhib; D = KLF5 inh; E = Platelet DG rel; F = AI-2 QS modul; G = aSyn 5UTR inh; H = HSP90 inh; I = HSF1 inh
31	CC1(c2ccccc2)NCCN2C(=O)CSC21 (stereo not drawn)
  A: -1	B: -3	C: 2	D: -17	E: 0	F: 27	G: 1	H: 3	I: -3
32	CCC(=NCCOc1ccc(Cl)cc1)c1c(O)n(C)c(=O)n(C)c1=O
  A: 15	B: -6	C: 0	D: -7	E: 2	F: 33	G: 11	H: -2	I: 6
33	C=CCN1CCc2cccc3c2[C@H]1Cc1ccc(O)c(O)c1-3
  A: 95*	B: 2	C: -1	D: -25	E: 7	F: 12	G: 16	H: 1	I: 87
34	CC(N)Cc1c[nH]c2ccc(OCc3cccs3)cc12 (stereo not drawn)
  A: -7	B: nt	C: -4	D: nt	E: 1	F: 24	G: 16	H: nt	I: 2
35	CNCCc1ccc(O)c(O)c1
  A: 9	B: nt	C: -9	D: nt	E: -5	F: -1	G: -11	H: nt	I: 1
36	C=CCN1CC[C@@]2(C)c3cc(O)ccc3CC1[C@@H]2C
  A: 33	B: nt	C: 0	D: nt	E: -1	F: -7	G: 1	H: nt	I: 3
37	CN1C2CCC1CC(OC(c1ccccc1)c1ccccc1N)C2 (stereo not drawn)
  A: 9	B: nt	C: -13	D: nt	E: -1	F: 2	G: -14	H: nt	I: 6
38	CCCCOCCCn1c(N)c(C(=O)OC(C)COC)c2nc3ccccc3nc21 (stereo not drawn)
  A: 9	B: -4	C: -28	D: -20	E: 5	F: 0	G: 37	H: -1	I: 8
39	CCC1(c2ccc(N)cc2)CCC(=O)NC1=O (stereo not drawn)
  A: 7	B: nt	C: -7	D: nt	E: 2	F: 23	G: -21	H: nt	I: 1
40	C[C@H]1OC[C@@H](C[N+](C)(C)C)O1
  A: -14	B: -7	C: 2	D: 5	E: 4	F: 17	G: 7	H: 2	I: 2
41	CN1C(=O)CN=C(c2ccc(Cl)cc2)c2cc(Cl)ccc21
  A: 14	B: 4	C: 0	D: -53	E: 0	F: 27	G: -26	H: 1	I: 13
42	CCC1(OC(=O)CN)C(=O)OCc2c1cc1n(c2=O)Cc2cc3ccccc3nc2-1 (stereo not drawn)
  A: -27	B: 96*	C: -135	D: 104*	E: 9	F: 26	G: 103*	H: 4	I: -16

Another view of some results above:
No. | SMILES | HSF-1 act | IEC-6 tox | HDAC3 inhib | KLF5 inh | Platelet DG rel | AI-2 QS modul | aSyn 5UTR inh | HSP90 inh | HSF1 inh
33 | C=CCN1CCc2cccc3c2[C@H]1Cc1ccc(O)c(O)c1-3 | 95* | 2 | -1 | -25 | 7 | 12 | 16 | 1 | 87
34 | CC(N)Cc1c[nH]c2ccc(OCc3cccs3)cc12 (stereo not drawn) | -7 | nt | -4 | nt | 1 | 24 | 16 | nt | 2
35 | CNCCc1ccc(O)c(O)c1 | 9 | nt | -9 | nt | -5 | -1 | -11 | nt | 1
36 | C=CCN1CC[C@@]2(C)c3cc(O)ccc3CC1[C@@H]2C | 33 | nt | 0 | nt | -1 | -7 | 1 | nt | 3
37 | CN1C2CCC1CC(OC(c1ccccc1)c1ccccc1N)C2 (stereo not drawn) | 9 | nt | -13 | nt | -1 | 2 | -14 | nt | 6
38 | CCCCOCCCn1c(N)c(C(=O)OC(C)COC)c2nc3ccccc3nc21 (stereo not drawn) | 9 | -4 | -28 | -20 | 5 | 0 | 37 | -1 | 8
39 | CCC1(c2ccc(N)cc2)CCC(=O)NC1=O (stereo not drawn) | 7 | nt | -7 | nt | 2 | 23 | -21 | nt | 1
40 | C[C@H]1OC[C@@H](C[N+](C)(C)C)O1 | -14 | -7 | 2 | 5 | 4 | 17 | 7 | 2 | 2
41 | CN1C(=O)CN=C(c2ccc(Cl)cc2)c2cc(Cl)ccc21 | 14 | 4 | 0 | -53 | 0 | 27 | -26 | 1 | 13
42 | CCC1(OC(=O)CN)C(=O)OCc2c1cc1n(c2=O)Cc2cc3ccccc3nc2-1 (stereo not drawn) | -27 | 96* | -135 | 104* | 9 | 26 | 103* | 4 | -16

Assay outcomes deposited in PubChem BioAssay by several laboratories.

This is a subset (hit frequency here may not be typical).
